Screening data as filed in PubChem.
GIV-Gai inh: inhibitors of GIV peptide binding to Galpha-i3, primary screen, biochemical, fluorescence polarization, FITC-GIV GBA peptide, rat Galphai3 | Guanine nucleotide-binding protein G(i) subunit alpha-3 (Rattus norvegicus), P08753 | 90 min; stronger effect = lower value; scaled: aluminum fluoride 0%, vehicle 100% | percent of control (FP), % (test concentration not listed) | 210,000 tested, 0.42% active | AID 1224905, 2016;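 active means replicate mean at 85% of control or lower, very high polarization wells dropped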;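 further: wells of about 15 µL received 100 nL stock; the first replicate is given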
Target sequence (P08753 whole entry, looked up): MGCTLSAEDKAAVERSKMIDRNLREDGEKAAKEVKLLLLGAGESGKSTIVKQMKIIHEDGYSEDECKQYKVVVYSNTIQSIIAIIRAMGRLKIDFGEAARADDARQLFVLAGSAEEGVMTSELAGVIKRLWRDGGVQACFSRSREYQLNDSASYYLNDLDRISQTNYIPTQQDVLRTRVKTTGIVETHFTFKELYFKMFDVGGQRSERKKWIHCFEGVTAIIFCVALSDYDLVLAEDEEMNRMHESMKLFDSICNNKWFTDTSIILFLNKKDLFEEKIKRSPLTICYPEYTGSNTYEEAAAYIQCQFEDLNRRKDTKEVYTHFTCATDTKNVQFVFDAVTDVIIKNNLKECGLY
* hit, by the source's call. Only part of the results is shown; count on the stated rates, not on these rows.

GIV-Gai inh | Structure
123.2 | Cc1nn(-c2nc3ccccc3[nH]2)c2c1C(c1ccc(F)cc1Cl)CC(=O)N2 (centres undefined)
115.1 | CCOC(=O)c1sc2nc(SCC(=O)NC3CCCCC3)n(Cc3ccco3)c(=O)c2c1C
110.8 | COC(=O)c1cccc(NC(=O)CSc2nccc(N3CCN(c4ccccc4OC)CC3)n2)c1
101.6 | CCN(CC)C(=O)CSc1nnc2c3ccccc3nc(-c3ccc(F)cc3)n12
100.6 | COCCNC(=O)c1ccc(Cn2c(SCC(=O)n3nc(N)cc3C)nc3ccc(Br)cc3c2=O)cc1
107.8 | Cc1nc(-c2cc(NC(=O)c3ccccn3)c(C)s2)no1
111.7 | Cc1ccc(OCc2nc3c4c(-c5ccccc5)c(-c5ccccc5)oc4ncn3n2)cc1
104.0 | Cc1c(S(=O)(=O)NCc2ccc3c(c2)CCN3C(=O)c2ccccc2)cnn1C(F)F
103.1 | Cc1c(C(=O)NCC2COc3ccccc3O2)sc2ncn(CC(=O)Nc3cccc(C(F)(F)F)c3)c(=O)c12 (centres undefined)
100.4 | CC1CCN(C(=O)c2cccc(-c3cc(NC4CCCCC4)ncn3)c2)CC1
100.9 | COc1ccc(OCC(=O)N2c3ccccc3-c3c(ssc3=S)C2(C)C)cc1
105.9 | COc1cc(C2C(C#N)=C(N)N(N(C)C)C3=C2C(=O)CCC3)ccc1OCc1ccccc1 (centres undefined)
112.1 | CN(C)c1nc(N(C)C)nc(N2CC(=O)N(c3ccc(Cl)cc3Cl)C2=N)n1
102.8 | CCn1c(SCC(=O)N2CCCc3ccccc32)nc(=O)c2c(C(=O)OC)cc(C)nc21
105.4 | Cc1ccc(N2C(=O)Nc3ccccc3S2(=O)=O)cc1C
103.2 | Cc1cccc(-c2nccc(Oc3ccc(C(=O)NCCC4=CCCCC4)cc3)n2)c1
101.1 | CCCc1cc(C2CCCN2C(=O)c2cc(C3CCCCC3)no2)no1 (centres undefined)
99.4 | COc1cc(C2CC(=O)Nc3c2cnn3-c2ccc3nnc(C)n3n2)ccc1O (centres undefined)
99.8 | CC(=O)C1=NN(c2ccc(Cl)cc2)C2(S1)SC(c1ccccc1)(c1ccccc1)c1ccccc12 (centres undefined)
104.1 | COC(=O)c1ccc2c(=O)n(CCc3ccc(S(N)(=O)=O)cc3)c(SCc3ccccc3Cl)nc2c1
101.1 | CCCS(=O)(=O)c1nc2ccc(NS(=O)(=O)c3ccc4c(c3)CCCC4)cc2s1
101.8 | CCCS(=O)(=O)N1CCc2[nH]nc(-c3ccccc3)c2C1
107.9 | O=C(NCC1CCCO1)c1nc(Cn2c(=O)oc3ccc(Cl)cc32)no1 (centres undefined)
104.2 | C=CCN1C(=O)C2(Nc3ccccc3C(=O)N2c2ccc(Cl)cc2)c2ccccc21 (centres undefined)
106.5 | O=C(CSc1nc(N2CCCCC2)nc2ccccc12)Nc1ccccc1
101.7 | CCOC(=O)c1sc(=S)n(-c2ccccc2F)c1N
113.0 | COc1ccc(NC(=O)CSc2nc3ccccc3c(=O)n2CCCC(=O)NCCc2ccccc2)c(OC)c1
110.0 | CCN(CC)C(=O)C1CCCN(c2ncnc3c2c(-c2ccccc2)cn3-c2ccc(OC)cc2)C1 (centres undefined)
98.3 | O=S(=O)(c1cc(-c2nnc(C3CCC3)o2)co1)N1CCCCC1
122.5 | CC1(C)CC(=O)C2=C(C1)c1c(ccc3ccccc13)NC2c1cn(CC(=O)Nc2ccc3c(c2)OCO3)c2ccccc12 (centres undefined)
104.5 | CC(=O)OCC1OC(n2cc(F)c(=O)[nH]c2=O)C(OC(C)=O)C1OC(C)=O (centres undefined)
104.5 | Cc1cccc(N2CCN(S(=O)(=O)c3ccc(-c4nnc(C5CC5)o4)o3)CC2)c1
103.1 | COc1ccc(NC(=O)CC2CCN(S(=O)(=O)c3ccc4c(c3)CCN4C(C)=O)CC2)cc1
109.7 | O=C(CC1(O)C(=O)N(CCc2ccccc2)c2ccccc21)c1ccc(-c2ccccc2)cc1 (centres undefined)
97.0 | CCOC(=O)CCNC(=O)N1CCC(N2CCN(Cc3ccccc3)C(=O)C2=O)CC1
103.2 | O=C(NC1CC1)c1nc(-c2ccc(S(=O)(=O)N3CCCCC3)cc2)no1
103.6 | CNC(=O)c1c(NC(=O)c2nc3ccccc3s2)sc2c1CCC2
104.5 | Cc1cc(C2CCCN2C(=O)c2cc(-c3ccc(F)cc3)no2)no1 (centres undefined)
100.3 | CN(CC1CCCO1)S(=O)(=O)c1ccc(C(=O)Nc2nc3c(F)cc(F)cc3s2)cc1 (centres undefined)
111.0 | Nn1cnn2c(SCC(=O)N3CCN(C(=O)CSc4nnc5n(N)cnn45)CC3)nnc12
112.1 | O=c1nc2n(-c3cccc(Br)c3)c3ccccc3cc-2c(=O)[nH]1
104.8 | CCOC(=O)c1c(CN2CCN(Cc3ccccc3)CC2)n(-c2ccccc2)c2cc(Br)c(O)cc12
108.5 | CCOC(=O)c1cccc(NC(=O)CN2C(=O)COc3ccc(S(=O)(=O)N4CCC(C)CC4)cc32)c1
105.1 | CN(C)CCN1C(=O)C2C3C=CC(C2C1=O)C1C2C(=O)N(CCN(C)C)C(=O)C2C31 (centres undefined)
102.3 | CCOc1cccc2c1OC(c1ccc(OC)cc1)N1N=C(c3cccc(OC)c3)CC21 (centres undefined)

Sorted by value in GIV-Gai inh (largest number first): six from the list above
GIV-Gai inh | Structure
111.0 | Nn1cnn2c(SCC(=O)N3CCN(C(=O)CSc4nnc5n(N)cnn45)CC3)nnc12
104.8 | CCOC(=O)c1c(CN2CCN(Cc3ccccc3)CC2)n(-c2ccccc2)c2cc(Br)c(O)cc12
104.5 | CC(=O)OCC1OC(n2cc(F)c(=O)[nH]c2=O)C(OC(C)=O)C1OC(C)=O (centres undefined)
103.2 | O=C(NC1CC1)c1nc(-c2ccc(S(=O)(=O)N3CCCCC3)cc2)no1
103.1 | COc1ccc(NC(=O)CC2CCN(S(=O)(=O)c3ccc4c(c3)CCN4C(C)=O)CC2)cc1
102.3 | CCOc1cccc2c1OC(c1ccc(OC)cc1)N1N=C(c3cccc(OC)c3)CC21 (centres undefined)

The list continues.
GIV-Gai inh | Structure
107.5 | CCn1c(SCc2cc(=O)n3ccccc3n2)nc2cc(-c3ccccc3)sc2c1=O
102.8 | Cn1c(=O)n(Cc2ccc(F)cc2)c(=O)c2cnc(-c3ccncc3)nc21
103.0 | COC(=O)C1C(=O)NC(SCC(=O)Nc2ccc(OC)cc2)=C(C#N)C1c1ccc(C(C)C)cc1 (centres undefined)
101.4 | CC1(C)CC(=O)C2=C(C1)N(c1cccc(Cl)c1)C(N)=C(C#N)C2c1ccc2c(c1)OCO2 (centres undefined)
106.1 | O=C(O)CN1C(=O)NC2NC(=O)NC21 (centres undefined)
109.4 | CCOC(=O)C(C)Oc1cc2oc(=O)c3c(c2cc1CC)CCCC3 (centres undefined)
109.1 | Cc1ccc(-c2nc3cc(Cl)c(Cl)cc3nc2-c2ccc(C)cc2)cc1
100.5 | CN1CCC2(CC1)N=C(c1ccc3c(c1)OCO3)CC(c1cc(Cl)ccc1O)N2 (centres undefined)
106.9 | CCOc1ccc2c(c1)N(C(=O)/C=C/c1ccc(OC)cc1)C(C)(C)c1ssc(=S)c1-2
104.5 | Cc1ccccc1NC1=NC(=S)N(c2cccc(Cl)c2)C12CCC(C(C)(C)C)CC2 (centres undefined)
104.3 | CCOC(=O)c1c(NC(=O)CSc2nnc(CNC(=O)COc3ccccc3)n2C)sc2c1CCCC2
120.9 | CC(C)c1ccc(Nc2nc(NCc3ccco3)nc(N3CCOCC3)n2)cc1
102.4 | Cc1cc(C2CCCN2C(=O)Cn2nc(C(F)(F)F)cc2C)on1 (centres undefined)
95.4 | CCOC(=O)C1CCN(c2cc(-c3nc(-c4ccccc4)no3)c3ccccc3n2)CC1
95.4 | NC(=O)c1nsc2c(=O)n(CC(=O)NCc3ccco3)cnc12
105.1 | CCCC1CCC2(C)c3c(c4ccccc4n3C)CCN2C1 (centres undefined)
102.5 | COc1ccc(OC)c(/C=N/c2oc(-c3ccccc3)c(-c3ccccc3)c2C#N)c1
105.5 | COc1ccccc1C1C=C(Nc2ccc(C)cc2)C(=O)N1c1ccc(C)cc1 (centres undefined)
108.5 | COc1ccc(OC)c(C2C(C(=O)c3ccccc3)N3C=Cc4ccccc4C3C2(C#N)C#N)c1 (centres undefined)
101.4 | FC(F)(F)c1cc2nc(-c3ccccc3)c(-c3ccccc3)nc2cc1Cl
105.9 | CC(C)OC(=O)c1ccc(-c2ccc(/C=C3\C(=O)N(c4ccc(S(N)(=O)=O)cc4)N=C3C(F)(F)F)o2)cc1
102.6 | CC(C)c1ccc(S(=O)(=O)N2CCN(Cc3nc4cc(C(=O)N(C)C)ccc4n3C)CC2)cc1
101.1 | Cc1ccc(-n2c(N3CCC(C(=O)NC(C)c4ccc(F)cc4)CC3)nc3ccsc3c2=O)cc1 (centres undefined)
100.4 | O=C(NCC1CCCO1)C1CCCN(c2ncnc3c2oc2ccccc23)C1 (centres undefined)
106.6 | CCCCCCCCc1ccc(-c2ccc(C(=O)OC(C)C(=O)OC(C)C)cc2)cc1 (centres undefined)
113.0 | Cc1nc(SCC(=O)c2cc3ccccc3oc2=O)c(C#N)c(C)c1C(=O)Nc1ccccc1
116.0 | COCCCNC(=O)c1ccc2c(c1)[nH]c(=S)n1c3ccccc3nc21
104.7 | C=CCOC(=O)C1=C(C)NC(SCC(=O)c2ccc(OC)cc2)=C(C#N)C1c1cccs1 (centres undefined)
98.9 | Brc1ccc(-c2nc(-c3ccc(-c4csc(C5CC5)n4)cc3)no2)o1
109.3 | CC(C)NS(=O)(=O)c1cc(-c2nnc(C(=O)N3CCCC3)o2)cs1
100.2 | COc1cccc(NS(=O)(=O)c2cc(-c3noc(C)n3)cs2)c1
107.9 | CC1=CC(C)(C)N(C(=O)CSc2nncn2C)c2ccccc21
112.5 | CCOc1ccc(N2C(=O)/C(=C\c3cc(OC)c(OC)c(OC)c3)S(=O)(=O)C2c2cccc([N+](=O)[O-])c2)cc1 (centres undefined)
103.9 | O=C(NC1CCCCC1)NC1CCN(C(=O)C2CC2)C1 (centres undefined)
100.0 | CC(C)n1c(CNS(=O)(=O)c2cccc3nsnc23)nc2cccnc21
110.5 | COc1cc(Nc2nc(SCc3cc(=O)n4ccccc4n3)nc3ccccc23)cc(OC)c1
97.9 | COc1ccc(OC)c(NC(=O)c2c(NCc3ccc(OC)c(OC)c3)sc3c2CCCCC3)c1
110.6 | COc1cc(/C=C2\N=C(c3ccccc3)N(c3ccc(Br)cc3)C2=O)cc(OC)c1OC
103.2 | COc1ccc(C(CC(=O)O)NS(=O)(=O)c2cccc3nsnc23)cc1OC (centres undefined)
108.8 | Clc1ccc(C2Nc3cccc4cccc(c34)N2)cc1Cl
101.9 | Cc1nc(N2CCOCC2)c2c(C)c(C(=O)Nc3ccc(F)cc3Cl)sc2n1
103.2 | CC(C)N1CCN(c2ccc3nnc(C4CCC4)n3n2)CC1
107.6 | O=C(COc1ccc(Cl)cc1Cl)NC1(C(=O)Nc2cccc(Cl)c2)CCCCC1
100.0 | COc1cccc(NC(=O)CCn2cnc3c(-c4ccc(C)cc4)noc3c2=O)c1
103.2 | O=C(NCCC1=CCCCC1)c1cn2c(n1)CCCC2
103.4 | Cc1nc(-c2csc(S(=O)(=O)N3CCCC(C(=O)NC4CC4)C3)c2)no1 (centres undefined)
103.2 | O=S(=O)(NCc1ccccn1)c1cccc2nsnc12
99.6 | CCOc1ccc(C2Nc3ccc(Br)cc3[C@H]3OCCC[C@@H]23)cc1 (some centres undefined)
101.4 | Cc1ccc(N2CC(C(=O)NCc3nnnn3-c3ccc(F)c(F)c3)CC2=O)cc1 (centres undefined)
104.8 | Cc1ccc(-c2nn3c(=O)cc(CN4CCN(C(=O)Nc5ccc(C)cc5Cl)CC4)nc3s2)cc1
117.5 | CCOc1ccc(N/C(SCc2ccc(C)cc2C)=C(/C#N)C(=O)NCc2ccc3c(c2)OCO3)cc1
105.2 | Cn1cnc2cc(-c3noc(/C=C/c4ccccc4)n3)ccc21
101.9 | COc1ccc(S(=O)(=O)n2nnc3ccccc32)cc1C
101.8 | CCOc1cc(CN2CCCC2c2c(C)noc2C)ccc1O (centres undefined)
106.1 | Cc1cc(C2CCCN2C(=O)c2cnn3cccnc23)no1 (centres undefined)
108.3 | CC(C)(C)c1ccc(S(=O)(=O)Nc2ccc3oc4c(c3c2)C(=O)CCC4)cc1
105.5 | NC(=O)C1CCN(C(=O)c2ccc3c(=O)n(-c4ccc(F)cc4)c(SCc4cccc(F)c4)nc3c2)CC1
108.0 | CC(C)COc1ccc2c(c1)c1c3n2CCNC3CCC1 (centres undefined)
109.3 | CCOc1cc(/C=c2/sc3nc(-c4cccc([N+](=O)[O-])c4)nn3c2=O)ccc1OC(C)=O
101.4 | CC(C)Cn1cc(C(=O)Oc2ccc3cnccc3c2)c2ccccc2c1=O
97.1 | COc1ccc(N2CCN(C(=O)CSc3nc4[nH]ncc4c(=O)n3-c3ccc(Br)cc3)CC2)cc1
97.6 | COC(=O)c1ccc(C2Oc3ccc(Cl)cc3C3CC(c4ccc(OC)cc4)=NN32)cc1 (centres undefined)
107.1 | CC(=O)OC1CCC2(C)C(CCC3C2C[C@H](OC(C)=O)C2(C)C(C(C)CC=C(c4ccccc4)c4ccccc4)CCC32)C1 (some centres undefined)

Six records drawn at random from those above, as already listed:
GIV-Gai inh | Structure
101.4 | Cc1ccc(N2CC(C(=O)NCc3nnnn3-c3ccc(F)c(F)c3)CC2=O)cc1 (centres undefined)
105.5 | NC(=O)C1CCN(C(=O)c2ccc3c(=O)n(-c4ccc(F)cc4)c(SCc4cccc(F)c4)nc3c2)CC1
101.9 | COc1ccc(S(=O)(=O)n2nnc3ccccc32)cc1C
106.1 | Cc1cc(C2CCCN2C(=O)c2cnn3cccnc23)no1 (centres undefined)
101.8 | CCOc1cc(CN2CCCC2c2c(C)noc2C)ccc1O (centres undefined)
103.2 | O=S(=O)(NCc1ccccn1)c1cccc2nsnc12
